Compound activity deposited in PubChem BioAssay by National Center for Advancing Translational Sciences (NCATS).
VACV Venus inh: vaccinia inhibition (Venus reporter); 330,000 tested, 0.46% active; Potency, µM (series often up to 36.5 µM), without a hit: top-dose activity change, negative = inhibition, hits mostly inhibitors; Vaccinia virus Venus reporter expression, fluorescence; active means well fitted inhibition curve with a large enough effect; inconclusive means small, poorly fitted or top-dose-only effect; inactive means no such curve, though single readings can be large or run the other way; tested in A549 cells; note: nearly all actives have a fitted effect of over 30% in size; inactives centre near -10
VACV mCherry inh: inhibitors of vaccinia virus infection (mCherry reporter signal); Vaccinia virus mCherry reporter infection, fluorescence; about a quarter of the inactives have no number; Potency, µM (highest dose often 36.5 µM), for inactives: at the highest dose activity change, negative = inhibition, most hits filed as inhibitors; 310,000 tested, 0.63% active; AID 720579; active = well fitted inhibition curve with a large enough effect; inconclusive = small, poorly fitted or top-dose-only effect; inactive = no such curve, though single readings can be large or run the other way; tested in A549 cells; note: nearly all actives have a fitted effect of over 35% in size; inactives centre near -10
* = called active by the depositor; i = inactive; ? = inconclusive; · = no result given; [ ] = dose if it differs, or a comment. % is set by controls: 0 for no effect and ±100 for the full control effect; potency is the fitted concentration of half-maximal effect.

smiles | VACV Venus inh | VACV mCherry inh
C/C(=N\NC(=O)CCC(=O)Nc1ccccc1)c1cccs1 | -7% | -14%
CCN(CC)C(=O)CN1C(=O)COc2ccc(S(=O)(=O)N3CCOCC3)cc21 | -10% | -7%
O=C(Cc1ccccc1)N[C@@H]1c2ccccc2CC[C@@H]1OCc1ccccc1 | -24% | ?
COc1ccc(CC(=O)Nc2cccc(-c3nnc(-c4cccc(C)c4)o3)c2)cc1OC | ? | -7%[1.46 µM]
O=S(=O)(/C=C/c1ccccc1)N1CCNCC1 | 3% | -2%
CCOCCn1c(=NC(=O)/C=C/c2ccccc2Cl)sc2cc(NC(C)=O)ccc21 | -11% | -16%
Cc1ccc(S(=O)(=O)N2CCC(C(=O)NC3CC3)CC2)cc1 | 4% | -9%
N#C/C(=C/c1ccccc1Cl)c1nc2ccccc2c(=O)[nH]1 | 1% | -13%
COC(=O)c1c(-c2cc(C)ccc2C)csc1NC(=O)C1CC=CCC1C(=O)O (centres undefined) | -8% | i
CCOc1ccc(N=Cc2ccc3ccccc3c2)cc1 | -15% | i

smiles | VACV Venus inh | VACV mCherry inh
COc1ccc(C(=O)n2nnc3ccccc32)cc1OC | -13% | -14%
Cc1cc2nc(-c3cccc(NC(=O)c4cccc5ccccc45)c3)oc2cc1C | -8% | -19%
O=C(NC(=S)Nc1ccccc1CO)C1CCCCC1 | 2% | -7%
CCOc1cc(CNCCN2CCOCC2)ccc1OCc1ccccc1Cl | -8% | -17%
Cn1nnnc1NCc1ccc(Cl)c(Cl)c1 | -10% | -16%
Cn1c(SCC(=O)c2ccc3c(c2)Cc2ccccc2-3)nnc1-c1ccccc1 | -17% | -18%
CCC1C(O)=C(c2ccccn2)C(=N)N1c1ccccc1 (centres undefined) | -18% | -16%
COC(=O)C1=C(c2ccc(S(C)(=O)=O)cc2)C[C@@H]2CC[C@H]1N2C(=O)NCc1cccc2ccccc12 | -4% | -11%
CCc1nnc(SCC(=O)Nc2ccc(C(C)=O)cc2)nc1CC | -3% | -29%
O=c1[nH]c(CN2CCNCC2)nc2ccccc12 | -13% | ·

Quoted from the listing.
COC(=O)C1=C(c2ccc(S(C)(=O)=O)cc2)C[C@@H]2CC[C@H]1N2C(=O)NCc1cccc2ccccc12 @ VACV mCherry inh: -11%
COc1ccc(C(=O)n2nnc3ccccc32)cc1OC @ VACV mCherry inh: -14%
Cn1c(SCC(=O)c2ccc3c(c2)Cc2ccccc2-3)nnc1-c1ccccc1 @ VACV Venus inh: -17%
Cn1nnnc1NCc1ccc(Cl)c(Cl)c1 @ VACV mCherry inh: -16%
Cc1ccc(S(=O)(=O)N2CCC(C(=O)NC3CC3)CC2)cc1 @ VACV Venus inh: 4%

Next section.
smiles | VACV Venus inh | VACV mCherry inh
Cc1cc(C)c(S(=O)(=O)Nc2nnc(C)s2)c(C)c1 | -17% | -15%
COc1cc(/C=C/C(=O)O)cc(S(=O)(=O)Nc2ccc3nc(C)sc3c2)c1OC | -7% | i
CC(C)(C)NC(=O)Cn1cnc([N+](=O)[O-])n1 | -8% | -8%
N#Cc1cc2cc3ccccc3nc2n2c(=O)c3ccccc3nc12 | -11% | i
COCCNC(=S)N(Cc1cccnc1)Cc1ccc(OC)c(OC)c1 | -7% | i
CCOC(=O)c1c(S(=O)(=O)NCC(=O)N2CCN(c3ccc(F)cc3)CC2)c(C)n(C)c1C | -26% | -1%
Cc1cc2c(c(-c3cnccn3)c1)OC(CNC(=O)c1c(F)cccc1Cl)C2 (centres undefined) | 0% | -7%
Cc1sc(NC(=O)C2CCCCC2C(=O)O)c(C(N)=O)c1-c1ccccc1 (centres undefined) | -17% | ·
Cc1cc(C)cc(NC(=O)C2CCCN2C(=O)Oc2ccccc2)c1 (centres undefined) | -10% | -33%
Cc1ccc(Cn2c(Sc3nccc(C)n3)nc3c2c(=O)[nH]c(=O)n3C)cc1 | -13% | i

smiles | VACV Venus inh | VACV mCherry inh
Fc1ccc(N2Cc3ccccc3-n3nncc3C2)cc1 | -9% | 7%
CC(C)(C)NC(=O)C(CCc1ccccc1)n1c(=O)c(-c2cc3ccccc3[nH]2)nc2ccccc21 (centres undefined) | -20% | ?
COc1cc2nc(N3CCOCC3)nc(NC3CCN(C)CC3)c2cc1OC | ? | ?
O=C(Nc1ccccc1)N1CCN(C2c3ccccc3-c3ccccc32)CC1 | -20% | -14%
COc1ccc(NS(=O)(=O)c2cccc(C(=O)NC3CCC(O)CC3)c2)cc1 (centres undefined) | -14% | i
O=C(CSc1ncccc1-c1nc2ccccc2[nH]1)N1CCN(c2ccccc2F)CC1 | -9% | -10%
Cc1[nH]n(-c2ccccc2)c(=O)c1/C=N/Nc1nncc(-c2ccccc2)n1 | ? | 4µM*
CC(C)C(NC(=O)c1cccc(S(=O)(=O)N2CCOCC2)c1)C(=O)NCCc1ccccn1 (centres undefined) | -6% | -12%
Cc1cccc(-n2c(C)cc(/C=N/n3cnnc3)c2C)c1 | -9% | ·
C(#CCN1CCOCC1)COCc1ccccc1 | -2% | ·

smiles | VACV Venus inh | VACV mCherry inh
COc1ccc(Nc2c[nH]c(=O)[nH]c2=O)cc1 | -14% | ?
O=C(c1ccc(N2CCCC2)c([N+](=O)[O-])c1)N1CCc2ccccc2C1 | -19% | -13%
Cc1ccc(F)cc1NC(=O)CSCc1nc2sc(C)c(C)c2c(=O)[nH]1 | -9% | -22%
Cc1cc(C(=O)Nc2cccc(-c3nc(CNC(=O)c4ccccc4C(F)(F)F)c(C)o3)c2)c(C)o1 | 7% | 2%
N#Cc1ccc(CN(Nc2ccccc2)c2ccccc2)cc1 | -17% | -16%
CS(=O)(=O)c1ccc(-c2nc(-c3ccc(F)cc3)c(-c3ccncc3)[nH]2)cc1 | -15%[60.7 µM] | -16%[60.7 µM]
NS(=O)(=O)c1ccc(NC(=O)CSc2nnc(-c3ccc(O)cc3)o2)cc1 | -11% | -2%
CCCc1cc(CN2CCOCC2)c(O)c(CN2CCOCC2)c1O | -15% | -20%
COc1cccc(CNc2ncc(-c3ccc(Br)cc3)n2C)c1 | -19% | i
COc1ccccc1CNC(=O)C1CCN(S(=O)(=O)c2c(C)noc2C)CC1 | -16% | i

Filtered by structure: the entries above with an NH in an aromatic ring.
smiles | VACV Venus inh | VACV mCherry inh
N#C/C(=C/c1ccccc1Cl)c1nc2ccccc2c(=O)[nH]1 | 1% | -13%
O=c1[nH]c(CN2CCNCC2)nc2ccccc12 | -13% | ·
Cc1ccc(Cn2c(Sc3nccc(C)n3)nc3c2c(=O)[nH]c(=O)n3C)cc1 | -13% | i
CC(C)(C)NC(=O)C(CCc1ccccc1)n1c(=O)c(-c2cc3ccccc3[nH]2)nc2ccccc21 (centres undefined) | -20% | ?
O=C(CSc1ncccc1-c1nc2ccccc2[nH]1)N1CCN(c2ccccc2F)CC1 | -9% | -10%
Cc1[nH]n(-c2ccccc2)c(=O)c1/C=N/Nc1nncc(-c2ccccc2)n1 | ? | 4µM*
COc1ccc(Nc2c[nH]c(=O)[nH]c2=O)cc1 | -14% | ?
Cc1ccc(F)cc1NC(=O)CSCc1nc2sc(C)c(C)c2c(=O)[nH]1 | -9% | -22%
CS(=O)(=O)c1ccc(-c2nc(-c3ccc(F)cc3)c(-c3ccncc3)[nH]2)cc1 | -15%[60.7 µM] | -16%[60.7 µM]

Remaining list, next part.
smiles | VACV Venus inh | VACV mCherry inh
CCn1c(CN2CCN(c3ccc(OC)cc3)CC2)nc2cc(S(=O)(=O)N(C)C)ccc21 | -4% | ?
C[C@H](CO)N1C[C@H](C)[C@@H](CN(C)S(=O)(=O)c2ccc(C#N)cc2)OCc2cnnn2CCCC1=O | -8% | 0%
CCCC(=O)NCc1nc2cccnc2n1Cc1ccc(F)cc1 | 2% | -7%
C/C(=N\OC(=O)Nc1ccccc1)c1ccc(C)cc1 | 4% | i
Cc1cccc(CN2CCN(C3CN(Cc4cn(Cc5ccccc5C(F)(F)F)nn4)S(=O)(=O)C3)CC2)c1 (centres undefined) | -9% | 23%
Cc1cc(Br)c(OCc2ccc(C(=O)N/N=C3\CC4CC=CC34)cc2)c(Br)c1 (centres undefined) | -11% | -15%
CCOc1ccc(CNC(=O)c2cccc(NC(=O)N3CCSc4ncccc43)c2)cc1 | -5% | -9%
CC(OC(=O)c1ccccc1N1C(=O)C2C3CCC(C3)C2C1=O)C(=O)c1ccccc1 (centres undefined) | ? | ?
O=C(Nc1cccc2cccnc12)c1ccc(Cl)cc1 | 4% | -13%
Nn1cnc2c([nH]c3ccccc32)c1=O | 0% | -6%

smiles | VACV Venus inh | VACV mCherry inh
O=[N+]([O-])c1ccc(Nc2nccc(Cl)n2)cc1 | -5% | -11%
CCOCCCn1c(=N)c(C(=O)NC2CCCC2)cc2c(=O)n3cc(C)ccc3nc21 | -1% | 6%
COc1ccc(C(=O)C[n+]2cccc3cccc(O)c32)cc1 | -14% | i
Cc1ccc(CN2CCCC(CO)(Cc3ccccc3C)C2)s1 (centres undefined) | -29% | ?
C=C(C)c1cccc(C(C)(C)NC(=O)N2CCN(C(=O)OCC)CC2)c1 | -7% | -23%
CCN(CC)C(=O)c1ccc(NC(=O)c2ccc(-n3cncn3)c([N+](=O)[O-])c2)cc1 | -2% | i
CCCN1C(=S)SC(C)(C)C1/[N+]([O-])=C/c1cccnc1 (centres undefined) | 2% | -10%
COc1ccc(CNC(=O)CC[C@H]2O[C@@H](n3cc(C)c(=O)[nH]c3=O)C[C@@H]2O)cc1 | -2% | 15%
CCOC(=O)C1=C(CS(=O)(=O)c2ccc(C(C)(C)C)cc2)NC(=O)NC1c1cccc(OC)c1 (centres undefined) | -14% | -19%
Cc1ccc(COC(=O)c2[nH]c3c(c2C)C(=O)CC(c2ccc(Cl)cc2)C3)cc1 (centres undefined) | 1% | -7%

smiles | VACV Venus inh | VACV mCherry inh
CCC(=NCc1ccco1)c1c(O)n(-c2ccc(Cl)cc2)c(=O)[nH]c1=O | -18% | i
C[C@H]1CN([C@@H](C)CO)C(=O)CCCn2nncc2CO[C@H]1CN(C)C(=O)Nc1ccc2c(c1)OCO2 | -5% | -25%
Cc1ccc(C)c(S(=O)(=O)Nc2ccc(C(=O)N3CCC3)cc2)c1 | -7% | -14%
Cc1nn(C)c(C)c1NC(=O)CSc1nc(-c2ccccc2Cl)nc2c1cnn2-c1ccccc1 | -13% | -19%
CCN(CC)CCCOC(=O)C(OC)(c1ccccc1)c1ccccc1 | -19% | ?
CN1CCN(C2CN(Cc3cn(Cc4ccccc4C(F)(F)F)nn3)S(=O)(=O)C2)CC1 (centres undefined) | 3% | 28%
Cc1ccccc1Cn1c(COc2ccc(Cl)cc2)nc2ccccc21 | -6% | -9%
CCCCn1c(N)c(N(CCC(C)C)C(=O)c2cc(S(=O)(=O)N3CCOCC3)ccc2F)c(=O)[nH]c1=O | -13% | -12%
O=C(COC(=O)c1ccccc1SCC(=O)N1CCCC1)Nc1ccccc1OC(F)F | -4% | -13%
Cc1cccc(C(=O)n2nc(-c3cccnc3)nc2NCc2ccc(F)cc2)c1 | -10% | -14%

smiles | VACV Venus inh | VACV mCherry inh
COc1cc(/C=C/C(=O)NNc2c(F)c(F)cc(F)c2F)ccc1OC(F)F | -19% | -4%
O=c1c2c(O)cc(O)cc2oc2c(O)ccc(O[C@H]3O[C@@H](CO)[C@H](O)[C@@H](O)[C@@H]3O)c12 | -8% | i
CCN(CC)C(=O)c1sc2c(c1C)c(=O)n(-c1ccccc1)c(=O)n2Cc1cc(=O)n2ccccc2n1 | 9% | -5%
COc1cc2c(cc1OC)C(c1ccccc1C)CC(=O)N2 (centres undefined) | -21% | i
Cc1ccc(NC(=O)CSc2ncccn2)cc1S(=O)(=O)N1CCCCC1 | -16% | -21%
CCC(=O)N1CCc2cc(S(=O)(=O)N3CCc4ccccc43)ccc21 | -14% | -8%
O=C(Nc1cccnc1Cl)c1ccc(Cl)cc1 | -10% | 4%
CCOc1ccc(NC(=O)Cn2c(=O)c(CNc3ccc(CC)cc3)cc3cc4c(cc32)OCO4)cc1 | 6% | -14%
Cc1c(C(=O)N2CCCCC2)sc(NC(=O)c2ccco2)c1C#N | -8% | ·
CC(=O)O[C@H]1C(=O)[C@@]2(C)C([C@H](OC(=O)c3ccccc3)[C@]3(O)C[C@H](OC(=O)[C@H](O)[C@@H](NC(=O)Cc4ccccc4)c4ccccc4)C(C)=C1C3(C)C)[C@]1(OC(C)=O)CO[C@@H]1C[C@@H]2O (some centres undefined) | -26% | -29%

smiles | VACV Venus inh | VACV mCherry inh
COc1ccccc1CNC(=O)N1CCN(S(=O)(=O)c2ccc(C)cc2)CC1 | -16% | -1%
COc1ccc([C@H]2CC(=O)C=C(c3cccc4c3Oc3ccccc3S4)C2)cc1OC | ? | ?
CCOCCCNC(=O)C(c1ccc(Cl)cc1)N(Cc1ccc2c(c1)OCO2)C(=O)CNC(C)=O (centres undefined) | -8% | -17%
CCOC(=O)c1cc(C)sc1NC(=O)CSc1nccn1C | -7% | -13%
CC(Oc1ccc(Br)cc1)C(=O)Nc1ccncc1 (centres undefined) | -6% | -6%
CC(OC(=O)c1cc(Br)ccc1O)C(=O)Nc1ccc(S(=O)(=O)N2CCCC2)cc1 (centres undefined) | ? | ?
CC(C)Oc1ccccc1OCCCOc1cccc2cccnc12 | -16% | i
C[C@H](CO)N1C[C@H](C)[C@@H](CN(C)Cc2ccncc2)Oc2c(NC(=O)Cc3ccccc3)cccc2C1=O | ? | i
CCOc1ccccc1C=NNC(=O)CCCCC(=O)NN=Cc1ccccc1OCC | -3% | -13%
Cc1[nH]nc2c(=S)[nH]c(=O)[nH]c12 | -7% | i
Cc1nc(N2CCCC2)ncc1C(=O)N1CCN(c2ccc(Cl)cc2)CC1 | -9% | -1%
O/N=C/c1cc(Br)ccc1OCc1ccccc1F | ? | ?
COc1ccc(NS(=O)(=O)c2ccc3nc(-c4ccccc4)[nH]c3c2)cc1 | -25% | ?
